Assay outcomes as filed in PubChem.
Rango dissoc inh – qHTS Assay for Inhibitors of RanGTP induced Rango (Ran-regulated importin-beta cargo) - Importin beta complex dissociation. 0.071% of 340,000 active. Potency, µM (titrated, usually from 46.1 µM), without a hit: top-dose activity change, negative = inhibition. Biochemical FRET Rango-importin beta, RanGTP-induced dissociation; active means falling FRET ratio curve, often poorly fitted, with flat reads before Ran was added; inconclusive means other falling curves, or compound fluorescence or quenching; inactive means flat or rising ratio curve;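 also: potency is read from the fitted curve at half-maximal effect; % of control where 0% means no effect; nearly all actives have a fitted effect of over 45% in size; -100% = wells without RanGTP and RCC1; the record marks most hits as doubtful in a second field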
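Compounds preincubate 5 min with complex of recombinant Rango and importin beta in PBS with 1 mM DTT. Ran (0.6 uM) loaded with 2 mM GTP plus 0.2 uM RCC1 starts dissociation; FRET is recorded 45 min later.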
Rango complex inh – qHTS Assay for Inhibitors of Rango (Ran-regulated importin-beta cargo) - Importin beta complex formation | Rango CFP/YFP FRET sensor + importin beta, 45 min | Importin subunit beta-1 (Homo sapiens), Q14974 | 0.031% of 340,000 active | Potency, µM (titrated, usually from 92.2 µM), inactives show at the highest dose inhibition of complex formation; active = rising FRET ratio curve, often small or poorly fitted; inconclusive = mostly compound fluorescence or quenching in the first reads; inactive = flat curves in all reads;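 also: potency is read from the fitted curve at half-maximal effect; 0% = DMSO wells and 100% = buffer wells lacking importin beta; nearly all actives have a fitted effect of over 15% in size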
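FRET biosensor Rango (snurportin 1 IBB between N-terminal EYFP and C-terminal Cerulean), 50 nM in PBS/1 mM DTT/0.02% Tween-20/0.1% BSA, preincubated 5 min RT with compound; 0.125 microM importin beta added, 45 min RT, CFP/YFP FRET ratio read.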
miR-21 FLuc – qHTS Assay for Modulators of miRNAs and/orActivators of miR-21. HeLa miR-21 FLuc reporter, luciferase, 48 h. Potency, µM (top dose mostly 38.3 µM), for the others: at the highest dose reporter change, positive = more light. 340,000 tested, under 10 active; active = well fitted rising curve with a large enough effect; inconclusive = small, poorly fitted or top-dose-only effect; inactive = no such curve, though single readings can be large or run the other way;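 also: % of control where 0% means no effect; miR-21 action dims this reporter so a rising signal means less miR-21 action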
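HeLa cells stably expressing CMV-driven firefly luciferase with a downstream miR-21 binding sequence, endogenously expressing miR-21, were treated with titrations (up to about 40uM final) for 48 hours at 37 degree Celsius. Luciferase luminescence was read after lysis.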
GLA inh pH 4.5 – qHTS Assay for Inhibitors of Human alpha-Galactosidase at pH 4.5 | activity change, negative = inhibition, % at 105 µM | AID 1467, 2008 | Alpha-galactosidase A (Homo sapiens), P06280 | purified enzyme, 4-MU-alpha-Gal fluorescence, pH 4.5 | 230,000 tested, under 10 active; inconclusive = small, poorly fitted or top-dose-only inhibition, or a rising curve; inactive = flat fitted curve, though single readings scatter; no compound was filed as active;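 also: 0% = full activity with enzyme and -100% = basal without enzyme; dose as in the result columns while the protocol names 77 µM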
Target sequence (P06280 whole entry, looked up): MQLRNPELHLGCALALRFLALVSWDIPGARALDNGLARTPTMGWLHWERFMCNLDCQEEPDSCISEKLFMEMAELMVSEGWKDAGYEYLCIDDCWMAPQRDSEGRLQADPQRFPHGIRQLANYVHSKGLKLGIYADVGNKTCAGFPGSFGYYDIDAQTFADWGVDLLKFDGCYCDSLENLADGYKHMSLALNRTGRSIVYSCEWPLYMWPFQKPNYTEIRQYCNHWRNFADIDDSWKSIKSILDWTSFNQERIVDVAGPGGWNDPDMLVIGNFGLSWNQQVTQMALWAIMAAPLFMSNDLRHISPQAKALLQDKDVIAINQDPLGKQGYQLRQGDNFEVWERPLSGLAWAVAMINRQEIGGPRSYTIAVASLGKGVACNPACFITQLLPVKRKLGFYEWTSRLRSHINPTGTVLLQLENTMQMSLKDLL
Numbers without * were called inactive; ? = inconclusive; · = not tested or not shown. An excerpt; rates above refer to the full screens.

SMILES	Rango dissoc inh	Rango complex inh	miR-21 FLuc	GLA inh pH 4.5
CC(C)(C)CC(C)(C)NC(=O)/C=C/C(=O)O	?	0.6%	-1%	3
O=C(NC(=S)Nc1ccccn1)c1ccco1	10%	1.1%	-66%	4
CC(=O)Nc1nc2cc([N+](=O)[O-])ccc2s1	17%	-0.9%	·	·
C/C(=N\Nc1nc(C)cc(C)n1)c1ccc(N2CCOCC2)cc1	-9%	1.5%	-11%	-10
CCCC/C=C/[C@H](c1ccccc1)[C@H](CO)Cc1cccnc1	1%	3.2%	·	·
CC(=O)N1N=C(c2cccc([N+](=O)[O-])c2)OC1(C)c1cccs1 (configuration not stated)	-6%	0.5%	-28%	·
COc1ccc(N2CCN(C(c3cccs3)C(C)NC(=O)c3ccc4c(c3)OCO4)CC2)cc1 (configuration not stated)	-1%	-4.5%	2%	-7
CN(c1ccc(OCC(=O)Nc2nc(-c3ccccc3)cs2)cc1)S(=O)(=O)c1ccc(F)cc1	24%	-0.2%	12%	-3
O=C(CN1CCCc2ccccc21)Nc1ccccc1[N+](=O)[O-]	17%	1.4%	0%	-22
Clc1ccccc1-c1nn2c(COc3ccccc3)nnc2s1	18%	0.0%	-13%	0
CCOc1ccc(CCNC(=O)C2CC(=O)N(c3ccccc3OCC)C2)cc1OCC (configuration not stated)	-7%	-0.1%	·	·
CC(=O)n1c(=O)oc2ccccc21	1%	1.5%	·	·
CCSc1ncc(/C=N/Nc2ccc([N+](=O)[O-])cc2)n1C	?	?	-23%	0
CCc1cccc(N=c2c([N+](=O)[O-])nn(-c3ccc4c(c3)OCCO4)n2O)c1	22%	3.6%	-27%	-5
O=C1/C(=C/c2ccccc2)CCc2ccc(Cl)nc21	-13%	?	·	·
Cc1ccc(C2=NNC(=O)C(P(=O)(c3ccccc3)c3ccccc3)C2)cc1 (configuration not stated)	?	-3.6%	-1%	3
Cc1cc(C)cc(OCC(=O)OCC(=O)NC2CCCCCC2)c1	-1%	0.2%	·	·
Cc1cc(=O)oc2cc(OCc3ccc(C(=O)OCC(=O)NC4CCS(=O)(=O)C4)cc3)ccc12 (configuration not stated)	-2%	0.4%	-13%	2
Cc1ccc(-c2csc(NC(=O)c3ccc([N+](=O)[O-])o3)n2)cc1	-11%	0.1%	-1%	·
O=C(/C(C=Nc1ccc(F)cc1)=C(/O)c1ccco1)C(F)(F)F	?	?	-74%	6
Cc1ccc(S(=O)(=O)N(C)C)cc1NS(=O)(=O)c1ccc(Cl)s1	10%	6.0%	0%	-1
CCN1CCN(c2ncnc3c2nnn3Cc2ccccc2)CC1	0%	-0.5%	-1%	2
COc1ccc(C(=O)NCc2nnc(SCC(=O)Nc3cc(C)cc(C)c3)o2)cc1OC	-4%	-2.3%	2%	-3
O=C(CN1C(=O)C2CCCCC2C1=O)Nc1cccc(C(F)(F)F)c1 (configuration not stated)	-2%	-0.4%	·	·
O=C(CN1CCOCC1)Nc1ccc(Br)cc1	0%	-0.4%	-1%	·

Compound profiles, from the list above:
Results for CCN1CCN(c2ncnc3c2nnn3Cc2ccccc2)CC1 : Rango dissoc inh: 0%; Rango complex inh: -0.5%; miR-21 FLuc: -1%; GLA inh pH 4.5: 2
Results for Cc1ccc(-c2csc(NC(=O)c3ccc([N+](=O)[O-])o3)n2)cc1 : Rango dissoc inh: -11%; Rango complex inh: 0.1%; miR-21 FLuc: -1%; GLA inh pH 4.5: ·

Taken from the listing, 2 compounds:
SMILES	Rango dissoc inh	Rango complex inh	miR-21 FLuc	GLA inh pH 4.5
CC(C)(C)CC(C)(C)NC(=O)/C=C/C(=O)O	?	0.6%	-1%	3
O=C(NC(=S)Nc1ccccn1)c1ccco1	10%	1.1%	-66%	4

Next records follow:
SMILES	Rango dissoc inh	Rango complex inh	miR-21 FLuc	GLA inh pH 4.5
CCn1c(Cc2ccc(OC)cc2)nc2ccccc21	-2%	4.5%	-6%	·
CCOc1ccc(/C=C2/Sc3ccc(C(=O)N4CCN(C(=O)c5ccco5)CC4)cc3N(C)C2=O)cc1OC	·	·	18%	-18
CCOc1ccc(NC(=O)CN(C)C(=O)C2(c3ccccc3)CC2)cc1OCC	0%	1.5%	·	·
COc1ccc(C2(C)NC(=O)N(CC(=O)Nc3ccc(Br)c(C)c3)C2=O)cc1OC (configuration not stated)	-13%	-2.0%	-2%	·
CCCCCC/C(=N\NS(C)(=O)=O)c1ccccc1	1%	-0.8%	-6%	10
COc1ccc(S(=O)(=O)Nc2nc3ccccc3nc2NCC2CCCO2)cc1 (configuration not stated)	1%	-0.2%	-2%	3
COC(=O)c1ccccc1NC(=S)NC(=O)C1CC1	8%	2.4%	-2%	-9
Cc1oc(-c2cccs2)nc1CN1CCN(CC(C)C)C(CCO)C1 (configuration not stated)	-29%	-0.1%	-4%	4
O=S1(=O)c2cccc3cccc(c23)N1Cc1nnc(-c2ccccc2Br)o1	3%	6.2%	-4%	4
CN(CC(=O)Nc1cccc(F)c1)CC(=O)Nc1ccccc1Oc1ccccc1	10%	6.8%	1%	·
NC(=O)c1c(NC(=O)Cn2cc([N+](=O)[O-])cn2)sc2c1CCCC2	2%	1.3%	-6%	-3
O=C(NCc1ccccn1)c1ccc2ccccc2n1	-8%	4.0%	-21%	2
COC(=O)CC[C@@H](C(=O)O)N1C(=O)c2ccccc2C1=O	1%	-1.4%	-1%	3
CC(=O)Nc1ccc(NC(=O)COC(=O)Cc2cccs2)cc1	-1%	-1.1%	3%	-6
Cc1nnc(N(C(=O)c2cnccn2)c2ccccc2)s1	17%	2.0%	-8%	1
COc1ccc(S(=O)(=O)N2CCOC23CCN(S(=O)(=O)c2cccs2)CC3)cc1	-2%	-0.2%	·	·
Brc1ccc2c(c1)CN1CCCC1=N2	-2%	-0.9%	14%	·
O=C(c1ccc(Br)cc1)N1CCC(C(=O)N2CCN(Cc3ccccc3)CC2)CC1	-2%	0.4%	5%	·
CCN(CC)CCCN=Cc1c(O)n(Cc2ccccc2)c(=O)c2ccccc12	?	?	-18%	6
Cc1ccccc1C1c2[nH]c3ccccc3c2CCN1CCCn1cccn1 (configuration not stated)	-12%	?	1%	3
Cc1noc(C(=O)Nc2c(C)n(C)n(-c3ccccc3)c2=O)c1Cl	-7%	-3.6%	0%	2
CC(C)C[C@H](NC(=O)[C@H](Cc1ccccc1)n1c(=O)[nH]c2ccccc2c1=O)C(=O)N1CCC(C(=O)O)CC1	2%	-0.8%	1%	·
Cc1ccnc(NS(=O)(=O)c2ccc(NS(=O)(=O)c3ccc(Br)cc3)cc2)n1	9%	0.2%	-1%	·
O=C(C1=C[C@@H](c2coc3ccccc3c2=O)C[C@@H](OCCCCO)O1)N1CCN(Cc2ccccc2)CC1	6%	-0.4%	0%	-2
CCOC(=O)Nc1cc(N)ncn1	4%	-0.9%	·	·

Next section.
SMILES	Rango dissoc inh	Rango complex inh	miR-21 FLuc	GLA inh pH 4.5
O=C(COC(=O)c1ccc(Cl)c(S(=O)(=O)N2CCCC2)c1)NCc1ccccc1	-17%	-2.2%	·	·
Cc1ccc(-c2onc3ccc(Cl)cc23)cc1	-7%	0.3%	-15%	-9
CCOC(=O)c1c(NC(=O)COc2cccc3c2CCN(Cc2ccc(F)cc2)C3=O)sc2c1CCC2	·	·	-2%	4
COC(=O)Cn1cc(C(=O)C(F)(F)F)c2ccccc21	18%	-0.7%	3%	5
COc1ccc(CN(C)C(=O)c2cc(-c3ccc(OC)c(OC)c3)nc3ccccc23)c(OC)c1	9%	4.4%	-3%	·
Cc1ccc(NC(=O)CN(C)C(=O)CSc2ncc(C(F)(F)F)cc2Cl)cc1	4%	0.7%	-10%	-9
Cc1ccc(NC(=O)Cc2ncc(C(F)(F)F)cc2Cl)cc1Cl	-22%	2.5%	-17%	2
O=C(CNC(=O)OCc1ccccc1)NC1CCCCCCC1	-1%	-0.5%	-6%	2
CCOC(=O)c1cc(-c2ccco2)nn1-c1ccc(C)cc1	-6%	-1.3%	-11%	5
O=C(O)c1cc(OCc2ccccc2)cc(OCc2ccccc2)c1	-13%	-3.1%	-1%	·
O=C(NC1CCCCC1)C1Cc2ccccc2CN1S(=O)(=O)c1ccc(F)cc1 (configuration not stated)	-2%	4.2%	-4%	-1
CCOC(=O)/C=C1\SCC(=O)N1CC(=O)NC12CC3CC(CC(C3)C1)C2	-11%	-2.9%	-10%	0
COC(=O)c1ccccc1NC(=O)c1cnn2cccnc12	2%	?	-15%	-22
CCCOC(=O)CSc1nnc(-c2cc(OC)c(OC)c(OC)c2)o1	3%	-0.2%	0%	3
Cc1ccc(CNC(=O)COc2ccccc2-c2ccccc2)cc1	-11%	-1.6%	-5%	-11
CN1CCCN(C(=O)CC2(CC(=O)O)CCCC2)CC1	1%	0.5%	0%	3
COc1ccc(C(=O)CNc2ccccc2C#N)cc1	0%	-6.9%	-39%	1
CN(C)c1ccc(C(=S)N2CCN(C(=S)Nc3cccc4ccccc34)CC2)cc1	-8%	-2.2%	-1%	-4
Cc1ccc(C(=O)N2CCCC(CCC(=O)N3CCN(c4ccccn4)CC3)C2)s1 (configuration not stated)	-9%	?	11%	-7
CC(Sc1nnc(Cc2ccccc2)o1)C(=O)Nc1ccccc1[N+](=O)[O-] (configuration not stated)	2%	0.5%	·	·
COC(=O)c1ccc(OCC2c3cc(OC)c(OC)cc3CCN2C(=O)c2ccco2)cc1 (configuration not stated)	-3%	0.0%	6%	-11
COc1cc(NC(=O)COc2ccccc2)c(OC)cc1NC(C)=O	-10%	1.5%	-8%	7
CNC[C@@H](C)NC[C@@H](Cc1ccccc1)NCCc1ccccc1	7%	0.4%	0%	·
COC(=O)C1=C(C)N(Cc2ccco2)C(=O)N[C@@H]1c1ccccc1	2%	-3.9%	4%	8
CN(C)c1ccc(/C=N/Nc2cccc(C(=O)O)c2)cc1	1%	-0.7%	-49%	·

Results in miR-21 FLuc and Rango complex inh, for some of the entries so far:
Molecule,miR-21 FLuc,Rango complex inh
CN(C)c1ccc(/C=N/Nc2cccc(C(=O)O)c2)cc1,-49%,-0.7%
CCCOC(=O)CSc1nnc(-c2cc(OC)c(OC)c(OC)c2)o1,0%,-0.2%

(more compounds)
SMILES	Rango dissoc inh	Rango complex inh	miR-21 FLuc	GLA inh pH 4.5
COc1ccc(C(CNC(=O)c2cc3ccccc3o2)N2CCCCC2)cc1 (configuration not stated)	22%	-0.1%	-7%	-2
CCn1c(SCc2nc(N)nc(N3CCCCC3)n2)nc2c1c(=O)n(C)c(=O)n2C	-11%	3.9%	-7%	4
Cc1cnc(NC(=O)CCNC(=O)c2ccc([N+](=O)[O-])cc2)s1	13%	-0.1%	-1%	3
CCOc1ccc(N2CC(C(=O)Nc3ccc4c(c3)OCCO4)CC2=O)cc1 (configuration not stated)	8%	7.3%	-13%	·
CC(OCc1ccccc1)C(NC(=O)OC(C)(C)C)C(=O)NCC1CCCO1 (configuration not stated)	0%	0.3%	-7%	1
COC(=O)N/N=C/c1cn(CCOc2ccccc2OC)c2ccccc12	-7%	1.3%	0%	·
CN(C)CCCNC(=O)C(=O)Nc1cc2c3c(c1)CC(=O)N3CCC2	-5%	-0.3%	-3%	·
O=C(Cc1ccc(Cl)cc1)Nc1ccc(S(=O)(=O)Nc2cnc3ccccc3n2)cc1	-13%	-3.5%	-9%	3
Cc1ccc(NC(=O)C2COc3ccccc3O2)nc1 (configuration not stated)	0%	4.6%	-48%	-7
CCOC(=O)c1cc([N+](=O)[O-])cc([N+](=O)[O-])c1Sc1ncnc2nc[nH]c12	4%	0.3%	·	·
Nc1ccc(N=Nc2ccccc2)cc1[N+](=O)[O-]	-7%	1.8%	·	·
O=C(O)C1C2C=CC(C2)C1C(=O)NCc1ccc(Cl)cc1Cl (configuration not stated)	20%	0.6%	1%	·
COc1ccc(CC(=O)NNC(=S)Nc2ccc(Br)cc2)cc1	17%	-1.2%	-2%	-7
O=C(CN(c1ccccc1)S(=O)(=O)c1ccccc1)N/N=C/c1ccc(OC2CSC2)cc1	·	·	-5%	-10
Cc1ccc(S(=O)(=O)N(C)c2ccc(C(=O)N3CCOCC3)cc2)cc1	2%	0.8%	1%	·
